Compound activity from PubChem.
MT1-MMP act inh – MT1-MMP (human) activation inhibition; P50281; HT1080 RFP-PRO-GFP cells, GFP/RFP ratio fluorescence, overnight; percent of plate control window, DMSO zero; GFP/RFP ratio change, % at 20 µM; hit rate 0.061% among 360,000; AID 651647;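 active = GFP/RFP ratio change of at least 30% with cell ATP level not reduced by more than half and red fluorescence within 50% of control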; note: strong numbers were not always called active
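Material – HT1080 RFP-PRO-GFP cells · Control set – DMSO wells and RFP-L50D-GFP cells · Incubation – overnight cell settling, then overnight compound exposure, 37 °C, 5% CO2 · Compound dosing – single-point 20 µM compound, 1% DMSO · Read-out – GFP/RFP fluorescence ratio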
eIF4H inh – inhibitors of RNA binding by human eIF4H | Q15056 | eIF4H fluorescence polarization binding assay | inhibition, % at 35 µM | hit rate 0.94% among 290,000 | AID 2012;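 active = 50% or more with normal probe brightness, or confirmed in later tests; about a fifth of its hits are not listed in these tables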;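 note: calls also rest on retests at 20 µM and on dose response follow-up; 0% = protein and probe with vehicle and 100% = probe without protein; strong numbers were not always called active; many hits fall short of the cut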
Yeast UUG start – modulators of start codon recognition fidelity in yeast; S. cerevisiae UUG-firefly luciferase reporter, luminescence/redox ratio; activity score, % at 18.7 µM; hit rate 0.13% among 350,000; AID 602363;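 active = replicate mean at a twofold rise or more, about +100% in these data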;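 note: firefly luciferase made from a UUG start codon reports start codon fidelity; reporter light over untreated wells divided by growth signal over untreated wells; some hits fall short of that in this replicate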
Rce1 inh – blocks yeast Ras-converting enzyme | hit rate 0.27% among 290,000 | calls only | AID 2563 | yeast membranes, quenched prenylated peptide cleavage fluorescence;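 active = fall in fluorescence gain of 50% or more versus controls, with final raw signal at or below 3038400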;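 note: plate controls were neutral control wells for no effect and wells lacking membranes for full effect; tested at 10 µM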
Target sequence (Q03530 whole entry, looked up): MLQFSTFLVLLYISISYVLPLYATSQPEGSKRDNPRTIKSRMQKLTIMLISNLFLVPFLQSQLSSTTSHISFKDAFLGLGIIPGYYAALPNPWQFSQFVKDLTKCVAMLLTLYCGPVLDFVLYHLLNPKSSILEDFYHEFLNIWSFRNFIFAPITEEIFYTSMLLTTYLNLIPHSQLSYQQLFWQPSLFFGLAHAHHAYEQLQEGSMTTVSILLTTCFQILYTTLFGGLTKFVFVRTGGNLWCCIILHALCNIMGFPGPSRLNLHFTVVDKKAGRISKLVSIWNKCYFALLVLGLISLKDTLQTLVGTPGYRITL
CSC inhib – blocks cancer stem cells | hit rate 1.1% among 300,000 | AID 2717 | cancer stem cell-like cells viability, luminescence | inhibition, % at 7.5 µM;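 active = mean at 75% or more and at least half the replicates too; tested in HMLE shEcad cells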;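 note: 0% = median of negative and 100% = median of positive control wells; the first replicate is given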
PABP FP inh – blocks human PABP binding to poly(A) RNA; P11940; fluorescence polarization; inhibition, % at 35 µM; hit rate 1% among 290,000; AID 2014;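 active = 50% or more with normal probe brightness, or confirmed in later tests; about a fifth of its hits are not listed in these tables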;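 note: calls also rest on retests at 20 µM and on dose response follow-up; controls were probe without protein and protein plus probe with vehicle; some compounds called inactive have numbers as strong as hits; many hits fall short of the cut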
Target sequence (P11940 whole entry, looked up): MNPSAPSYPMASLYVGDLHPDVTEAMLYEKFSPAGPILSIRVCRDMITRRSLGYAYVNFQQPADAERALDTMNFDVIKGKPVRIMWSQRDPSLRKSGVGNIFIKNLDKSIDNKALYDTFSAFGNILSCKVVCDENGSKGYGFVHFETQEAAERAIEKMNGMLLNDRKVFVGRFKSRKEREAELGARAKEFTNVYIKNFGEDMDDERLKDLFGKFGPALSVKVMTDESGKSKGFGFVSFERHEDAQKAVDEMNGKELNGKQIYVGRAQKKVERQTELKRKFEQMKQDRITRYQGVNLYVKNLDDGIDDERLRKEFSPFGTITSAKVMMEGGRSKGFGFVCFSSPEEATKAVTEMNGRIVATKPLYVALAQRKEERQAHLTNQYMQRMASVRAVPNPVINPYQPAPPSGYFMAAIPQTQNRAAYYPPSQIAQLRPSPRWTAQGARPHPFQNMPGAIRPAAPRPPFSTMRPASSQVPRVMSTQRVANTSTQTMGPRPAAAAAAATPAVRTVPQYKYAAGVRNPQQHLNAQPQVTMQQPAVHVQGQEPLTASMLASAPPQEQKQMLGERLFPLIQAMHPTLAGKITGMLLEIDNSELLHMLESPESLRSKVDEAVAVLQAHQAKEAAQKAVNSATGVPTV
Env fusion inh – blocks HIV Env-driven cell-cell fusion. hit rate 1.1% among 360,000. AID 651610. inhibition, % at 12.3 µM. HeLa-JRFL Env/CEM21 cell fusion, luciferase;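 active = mean replicate inhibition score of at least 50 and every replicate individually at or above 50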;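 note: 0% = plate neutral controls and 100% = maraviroc near 300 nM; one replicate is shown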
eIF4H inh retest – also measured in eIF4H inh; calls as there; inhibition, %; compound at 20 µM; confirmation average;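 mean of two retest wells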
PABP FP inh retest – also measured in PABP FP inh; calls as there; inhibition, %; compound at 20 µM; confirmation repeats;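 mean of two retest wells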
MT1-MMP act inh RFP – second read-out of MT1-MMP act inh, no call of its own (marks repeat the call); RFP signal change, %; measured here: RFP expression control read;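 0 = vehicle wells; hits needed this value within 50% of zero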
Starred values were filed as active, the others as inactive; i = inactive; . = not tested or not shown. Outcome played no part in choosing rows, and some 2.9% of all compounds hit somewhere here.

SMILES	MT1-MMP act inh	MT1-MMP act inh RFP	eIF4H inh	Yeast UUG start	Rce1 inh	CSC inhib	PABP FP inh	Env fusion inh	others
Cc1ccccc1-c1cn(-c2ccccc2)c(=S)[nH]1	3	3	5	-24	i	-24	3	-2
CC(O)CNc1nc2c(c(=O)n(Cc3ccc(Br)cc3)c(=O)n2C)n1C (stereo unspecified)	0	0	-5	10	i	-4	21	5
C=C(C)Cn1c(CCCNC(=O)CC)nc2ccccc21	-2	1	4	-8	i	.	-9	10
COc1ccc(OC)c(NC(=O)c2c(NC(=O)c3ccco3)sc3c2CCC3)c1	.	.	-6	.	i	.	8	.
CC(C)NC(=O)c1cccc(Br)c1	1	4	-6	-23	i	-7	3	.
COc1cccc(OC)c1C(=O)Nc1ccc(Cc2ccncc2)cc1	3	-4	-6	.	i	-14	0	.
O=C(CCNC(=O)c1ccc(Cl)cc1)NCc1cccc(C(F)(F)F)c1	1	-4	.	7	i	-2	.	7
Cc1cc(C)nc(NS(=O)(=O)c2ccc(NC(=O)CN3C(=O)S/C(=C\c4ccccc4)C3=O)cc2)n1	10	4	3	.	i	.	8	31
CCC(Sc1nc2ccccc2c(=O)[nH]1)C(=O)Nc1ccc(C(C)=O)cc1 (stereo unspecified)	2	-3	1	-12	i	0	-6	-26
COc1ccc(-n2c(Cc3cccn3C)nnc2SCC(=O)Nc2cccc(OC)c2)cc1	0	-1	-9	0	i	-16	-20	-17

Grouped by structure: the compounds so far containing a halogen.
SMILES	MT1-MMP act inh	MT1-MMP act inh RFP	eIF4H inh	Yeast UUG start	Rce1 inh	CSC inhib	PABP FP inh	Env fusion inh	others
CC(O)CNc1nc2c(c(=O)n(Cc3ccc(Br)cc3)c(=O)n2C)n1C (stereo unspecified)	0	0	-5	10	i	-4	21	5
CC(C)NC(=O)c1cccc(Br)c1	1	4	-6	-23	i	-7	3	.
O=C(CCNC(=O)c1ccc(Cl)cc1)NCc1cccc(C(F)(F)F)c1	1	-4	.	7	i	-2	.	7

(further entries)
SMILES	MT1-MMP act inh	MT1-MMP act inh RFP	eIF4H inh	Yeast UUG start	Rce1 inh	CSC inhib	PABP FP inh	Env fusion inh	others
CC1CC(C)CN(C(CCc2ccccc2)C(=O)NC2CCCCC2)C1 (stereo unspecified)	7	13	.	-5	.	.	.	-15
C=CCNc1oc(-c2ccc(OCC)cc2)nc1C#N	0	-11	-2	-14	i	-9	-3	.
Cc1nn(-c2ccccc2)c2c1C(c1ccccc1)C(C#N)=C(N)O2 (stereo unspecified)	8	2	-7	-10	i	-14	-2	.
CCN(CC)c1nc2ccccc2n(Cc2cccc(OC)c2)c1=O	-1	-1	-12	-10	i	3	1	-1
CCc1ccc(NC(=O)Nc2ccc3c(c2)N(C)C(=O)CS3)cc1	-5	-9	-7	-15	i	14	-3	25
CC(=O)Nc1ccc(NS(=O)(=O)c2ccc(-c3csc(C)n3)s2)cc1	2	1	-12	-2	i	-6	-2	3
CCc1cc(=O)oc2cc(OCC(=O)NCCCn3ccnc3)c(Cl)cc12	11	30	5	-2	i	19	-2	-5
COC(=O)C1=CN(c2ccc(F)cc2)C=C(C(=O)OC)C1c1cccc(Br)c1	-14	-10	12	-9	i	17	4	.
COc1ccc(/C=C/C(=O)Nc2ccc3nc4n(c(=O)c3c2)CCCC4)cc1OC	2	0	-1	.	i	-4	-11	-19
C=CCNC(=O)CCCOc1cc(C)ccc1C	5	2	5	-2	i	-9	0	.
CCC(CC)C(=O)Nc1ccc(C(=O)c2ccccc2)cc1	2	4	-4	1	i	-5	8	.
COc1cccc(NC(=O)Nc2cc(C)on2)c1	0	-5	2	-3	i	-12	8	-10
COCCN(C(=O)c1csnn1)C(C(=O)NC1CCCCC1)c1cccs1 (stereo unspecified)	2	0	-9	-17	i	-4	-1	-40
O=C(CN1C(=O)NC2(CCCC2)C1=O)NCc1ccco1	3	3	.	-8	.	-5	.	.
O=C(CN1C(=O)C2CC=CCC2C1=O)NCc1cccs1 (stereo unspecified)	3	6	-8	.	i	-6	14	-18
Cc1ccc(C)c(Cn2c(=O)n(-c3ccc(CC(=O)NCc4ccco4)cc3)c(=O)c3sccc32)c1	2	-1	-14	-7	i	-4	-10	24
COc1cccc(N2CCN(CC(=O)NC(C)c3ccccc3)CC2)c1 (stereo unspecified)	0	0	6	-4	i	.	-2	1
Cc1ccc2nc(SCc3nnc(-c4ccccc4Br)o3)[nH]c2c1	-1	-6	-9	-4	i	.	-5	.
CSc1nc(O)c(Nc2ccccc2)c(=O)[nH]1	0	0	.	-27	.	.	.	13
COc1cc(CC(=O)N(CC(C)C)C2CCS(=O)(=O)C2)cc(OC)c1OC (stereo unspecified)	-1	-1	.	-20	.	11	.	-24
COc1ccc(C2CC(=O)c3c(C)nc(N4CCN(c5ccccc5)CC4)nc3C2)cc1 (stereo unspecified)	-2	-10	6	-15	i	4	8	-23
COc1ccc(NCc2nnc(SCC(=O)c3ccc(C)cc3)o2)cc1	-10	-1	2	-10	.	6	15	-59
O=C(NNc1nc2ccccc2o1)c1ccccc1	4	0	1	-50	i	26	0	-9
CC(C)CCN1CCN(Cc2cc3ccccc3[nH]2)CC1CCO (stereo unspecified)	0	2	7	-4	i	-4	11	-4
CCCCn1c(N)c(N(CCOC)C(=O)c2cc(-c3ccc(OC)c(OC)c3)nc3ccccc23)c(=O)[nH]c1=O	2	3	.	-9	i	-16	.	-3
COc1cc(/C=C/C(=O)O)cc(OC)c1OC	3	4	-5	-14	i	-3	61	2	eIF4H inh retest=22;PABP FP inh retest=4
CCN1C(=O)[C@@H]2[C@@H](c3ccc(-c4ccc(C(C)=O)cc4)cc3)N3CCC[C@@]3(C(=O)OC)[C@@H]2C1=O	-7	-2	.	3	i	-4	.	-50
CCCNC(=O)c1ccccc1NC(=O)c1ccccc1N(C)S(=O)(=O)c1ccc(C)cc1	-3	2	-9	0	i	.	0	.
COc1ccc(-c2nn(-c3ccccc3)cc2CNC(C)Cn2cncn2)c(F)c1 (stereo unspecified)	0	2	-4	-16	i	-12	0	1
Cn1nccc1C(=O)NCCN1C(=O)OC(C)(C)C1(C)O (stereo unspecified)	0	0	1	-3	i	-8	-3	2
CCOc1ccccc1N1CC(C(=O)N(CC)C2CCS(=O)(=O)C2)CC1=O (stereo unspecified)	4	0	.	.	.	-16	.	4
COCC(C)NC(=O)/C=C/c1ccc(OC)cc1 (stereo unspecified)	-2	5	-12	.	i	-5	6	-12
CS/C(=C/[N+](=O)[O-])Nc1cccc2c1C(C)CC2(C)C (stereo unspecified)	-1	-2	-8	.	.	.	-14	-110
COCCNC(=O)C1(C)CCCN(CC(=O)c2ccc(OC)cc2)C1 (stereo unspecified)	0	3	.	-1	.	.	.	-7
Nc1nnnn1-c1cccc([N+](=O)[O-])c1	2	-2	.	6	.	.	.	-9
N#C/C(=C(/O)CSc1nnc(Cc2cccs2)n1C1CCCCC1)c1nc2ccccc2[nH]1	-7	-1	17	-21	i	6	9	-68
CCCS(=O)(=O)NC(=O)C1(C)CCN(C(=O)Cc2ccc3ccccc3c2)C1 (stereo unspecified)	-9	3	.	-13	.	.	.	5
COc1ccc(/C=N\NC(=O)c2cc(O)c(O)c(O)c2)cc1COc1ccc(C(=O)OCC(C)C)cc1	2	-10	20	-4	i	50	6	-22
CC1CCc2nc(NC(=O)c3ccc(S(=O)(=O)N4CCCc5ccccc54)cc3)sc2C1 (stereo unspecified)	-11	-23	-11	-6	i	5	-9	.
CC(C)CC1NC(=O)N(CC(=O)c2ccc3c(c2)OCCO3)C1=O (stereo unspecified)	-5	0	-5	-17	i	-2	10	-188
CCN=c1scc(C)n1/N=C/c1cc(Br)c(O)c(OC)c1	0	-2	2	.	i	-6	3	-2
CC(C)Cn1c(-c2ccccc2F)n[nH]c1=S	2	3	4	-19	i	.	7	.
CCc1nc2sc3c(c2c(=O)n1N)CC(C)(C)OC3	1	0	-6	.	i	-6	3	8
Cc1cccc(NC(=O)CCc2c(C)nc3ncnn3c2C)n1	2	0	-4	-16	i	0	15	-58
Cc1ccc(-c2nc3c4ccccc4ccn3c2Cc2ccsc2)cc1	1	4	.	5	.	.	.	16
CC(Oc1cc2oc(=O)c3c(c2cc1Cl)CCCC3)C(=O)NCc1ccccn1 (stereo unspecified)	-1	1	3	5	i	-10	8	-1
O=S1(=O)CCN(Cc2csc(-c3cccs3)n2)CC1	2	1	-4	.	i	10	5	-7
CCn1c(C)c(C)c2cc(C(=O)NCCN3CCOCC3)ccc21	9	7	-13	-15	i	-6	-4	1
O=c1c([N+](=O)[O-])c(N2CCCCCC2)c2ccccc2n1-c1ccccc1	0	2	-4	-13	i	-3	-8	.
O=C1CC(c2cccc(F)c2)c2c(c3ccccc3[nH]c2=O)O1 (stereo unspecified)	1	3	-1	.	i	-11	-4	-2
(listing goes on)
SMILES	MT1-MMP act inh	MT1-MMP act inh RFP	eIF4H inh	Yeast UUG start	Rce1 inh	CSC inhib	PABP FP inh	Env fusion inh	others
CN(C(=O)COC(=O)C1CCN(S(=O)(=O)c2cccs2)CC1)c1ccccc1	2	5	-9	.	i	-7	2	21
O=C(c1cc(C2CC2)nn1-c1ccccc1)N1CCN(Cc2ccc(Cl)cc2)CC1	3	-6	.	2	.	.	.	15
O=C(CN1CCN(c2ccc(F)cc2)CC1)N1N=CCC1c1ccccc1 (stereo unspecified)	2	0	0	-12	.	-14	-3	.
CN(Cc1cnn(C)c1)Cc1nc(C(c2ccccc2)c2ccccc2)no1	-2	1	1	.	i	.	-5	8
CCc1ccc(NC(=O)C(C)OC(=O)C2CCN(c3ccc(C(F)(F)F)cn3)CC2)cc1 (stereo unspecified)	4	2	.	.	i	-7	.	12
CN(C)C(=O)c1ccccc1Sc1cc(Cl)ccc1Cl	4	0	-1	-10	i	-10	5	.
O=C(CCNC(=O)N1CCn2c1nc1ccccc12)NCc1ccc(F)cc1	-2	-1	-2	-12	i	0	8	-4
COc1cccc(CNS(=O)(=O)c2c(C)nc3scc(C)n3c2=O)c1	-2	2	3	-8	i	-18	9	-1
OC(CNCc1ccccc1Cl)C(F)(F)F (stereo unspecified)	-3	0	1	.	.	14	-1	-2
COc1ccc(N2CCN(C(CNS(=O)(=O)c3ccccc3)c3ccccc3)CC2)cc1 (stereo unspecified)	-3	-5	-16	.	i	-6	-6	-13
CCN(CC)CCN1CCN(c2cncc(-c3cccc(N)c3)n2)CC1	5	5	.	-11	.	.	.	7
FC(F)(F)c1cnc(NNC(=S)Nc2ccc(Cl)cc2)c(Cl)c1	-14	-34	15	.	i	59	5	55*
O=C(CCCc1c[nH]c2ccccc12)Nc1ncccc1O	5	3	-2	-17	i	6	-6	4
O=S(=O)(N/N=C/c1ccc2c(c1)OCCO2)c1ccccc1	2	5	-4	.	i	-21	-9	-56
CCOC(Cn1c(CCCO)nc2ccccc21)OCC	5	5	-4	.	i	-12	-3	-22
N=c1oc2ccccc2cc1C(=O)Nc1ccc(F)cc1	-3	1	-5	5	i	-17	8	-140
Cc1coc2c(C)c3oc(=O)c(CCC(=O)N(C)CC(=O)O)c(C)c3cc12	9	5	23	7	i	3	9	10
O=C(CSC1=NS(=O)(=O)c2cc(Cl)ccc2N1)NCc1ccc(F)cc1	4	2	.	.	i	-3	.	-17
CCCCOC(=O)c1ccc(NC(=O)c2cnc3n(c2=O)CCS3)cc1	-5	-13	4	-18	i	4	-5	.
CCN(CC)c1ccc(NC(=O)CN2C(=O)CC(C)(C)S(=O)(=O)c3ccccc32)c(C)c1	1	-1	-3	-10	i	-3	16	-12
Cc1ccc(S(=O)(=O)NCCCNS(=O)(=O)c2ccccc2)cc1	1	3	7	-13	i	.	1	-12
